Source: PubChem (ICCB-Longwood Screening Facility, Harvard Medical School)
RVFV N-RNA inh – inhibitors of RVFV nucleoprotein–RNA binding, primary screen, biochemical, fluorescence polarization | P21700 | % bound, % (no concentration beside the values) | AID 651828, 2012 | RVFV N-RNA binding; hits give low values | actives 0.1% (n = 20,000);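 active = between 0 and 58% in either replicate with normal brightness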;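 note: 100 nL library stock added to about 12 µL; 100% = protein and probe without compound and 0% = probe alone; numbers are from one replicate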
Target sequence (P21700 whole entry, looked up): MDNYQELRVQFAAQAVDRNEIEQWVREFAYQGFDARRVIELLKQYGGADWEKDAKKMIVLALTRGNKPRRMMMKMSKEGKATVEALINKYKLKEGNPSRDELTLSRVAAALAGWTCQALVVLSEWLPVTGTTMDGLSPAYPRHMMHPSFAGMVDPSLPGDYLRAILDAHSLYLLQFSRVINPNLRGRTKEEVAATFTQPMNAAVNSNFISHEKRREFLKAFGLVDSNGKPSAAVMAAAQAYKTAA
Starred values were filed as active, the others as inactive; & = joins results of further samples. A portion of the library, so the mix of outcomes need not match the whole.

SMILES | RVFV N-RNA inh
CSc1c(C#N)c(-c2cccs2)nn1CC(=O)N/N=C/c1cccs1 | 94
Cc1nc(C)c(C(=O)NCc2ccccc2Cl)o1 | 107
CCN(CC)C(=O)c1ccccc1Sc1ccccc1C#N | 99
N#Cc1ccccc1NC(=O)CCS(=O)(=O)c1ccccc1 | 101
CSc1ncc(C(=O)N2CCOCC2)cn1 | 92
O=C(Nc1sccc1-n1cccc1)NC1Cc2ccccc2C1 | 99
COC(C)(C)/C=C(\N)C(=O)c1ccccc1 | 91
CCn1c(=NC(=O)CN2C(=O)c3ccccc3C2=O)sc2cccc(F)c21 | 101
O=c1[nH]c(CSCc2ccco2)nc2ccccc12 | 91
CCOCCn1ccc2c(OCC(=O)Nc3ccc4c(c3)OCCO4)cccc2c1=O | 94
CCOC(=O)C1=C[C@]2(CC)CCCN3CCc4c(n1c1ccccc41)[C@@H]32 | 97&97
Cn1c(=NC(=O)COCC(=O)N=c2sc3cccc(F)c3n2C)sc2cccc(F)c21 | 92
CCN(CC)C(=O)Nc1ccc(S(=O)(=O)NC)cc1 | 96
CC(=C1C(=O)c2ccccc2C1=O)N1CCN(c2cccc(Cl)c2)CC1 | 88
COc1cc(OC)c(OC)cc1CN1CCN(c2ccccc2F)CC1 | 87
CCN(C(=O)c1cccc(S(=O)(=O)N2CCCCC2)c1)C1CCS(=O)(=O)C1 (configuration not stated) | 100
COc1cc2sc(=NC(=O)c3cccc(OC)c3OC)n(C)c2cc1OC | 108
CC[C@H]1OC(=O)[C@H](C)[C@@H](O[C@H]2C[C@@](C)(OC)[C@@H](O)[C@H](C)O2)[C@H](C)[C@@H](O[C@@H]2O[C@H](C)C[C@H](N(C)C)[C@H]2O)[C@](C)(O)C[C@@H](C)/C(=N/OCOCCOC)[C@H](C)[C@@H](O)[C@]1(C)O | 95
COc1cccc(-c2nn(-c3cc(C(F)(F)F)ccn3)c(=O)o2)c1 | 101
CN1C(C(=O)Nc2ccccn2)=C(O)c2sc(Cl)cc2S1(=O)=O | 102
COc1ccc(CCNC(=O)NC2CC(=O)N(c3ccc4c(c3)OCCO4)C2)cc1OC (configuration not stated) | 100
CN(Cc1ccccc1)C(=O)c1ccccc1NC(=O)C1CC1 | 101
CC12CCC(C(=O)NC3CCCCC3)(CC1=O)C2(C)C (configuration not stated) | 96
CC1(C)CC(O)CC(C)(C)N1CC(O)COC1CCCCC1 (configuration not stated) | 89
CCOC(=O)C(O)(c1ccc(NC(=O)NC)cc1)C(F)(F)F (configuration not stated) | 95
C(=N\c1ncn[nH]1)/c1cccs1 | 96
OC1(CCC2(O)CCCC2)CCCC1 | 109
O=C(CSc1nnnn1-c1ccccc1)N(C1CCCCC1)C1CCCCC1 | 95
CCN(CC)c1ccc(C(=S)N2CCN(CCO)CC2)cc1 | 93
Cc1cc(C(=O)ONC(=O)c2ccco2)nn1-c1cc(Cl)ccc1Cl | 88
FC(F)(F)c1cc(Cl)nc(-c2ccccc2)n1 | 105
Nn1c(SCc2cccc(Br)c2)nnc1-c1ccccc1 | 96
Cc1ccc(F)cc1NC(=O)/C=C\C(=O)O | 97
COc1cccc(NC(=O)NCc2c(-c3ccccc3)noc2C)c1 | 97
COc1cc(OC)c(CN2CCN(c3ccccc3C)CC2)cc1Br | 93
Cc1oc2ccccc2c1CC(=O)Nc1ccc(C(F)(F)F)cc1 | 96
CSc1ccc(C(=O)Nc2nnc(C3=COCCO3)o2)cc1 | 94
NS(=O)(=O)c1ccc(NNC(=O)CC2(CC(=O)O)CCCC2)cc1 | 96
Cc1ccnc(N(C(=O)Nc2ccc(Cl)cc2)C2=NCC(C)S2)c1 (configuration not stated) | 98
C=CCc1ccc(O)c(-c2ccc(O)c(CC=C)c2)c1 | 99
CCCCCC(=O)NC1CCN(C)CC1 | 102
CC(=O)Nc1cccc(OCC(=O)N(C)c2ccccc2)c1 | 95
COc1ccc2c(c1)CN(c1ccc(C)cc1C)CO2 | 95
N#Cc1c(-c2ccccc2)cc(-c2cc(Br)ccc2O)[nH]c1=O | 105
C/C(=N/O)c1nnc2cc(C)nn2c1C | 99
Cc1ccc(N2CC(NC(=O)NCc3ccccn3)CC2=O)cc1 (configuration not stated) | 93
S=C(Nc1cccnc1)Nc1cccnc1 | 90
Oc1ccc(CN2CCN(c3cccc(C(F)(F)F)c3)CC2)cc1 | 97
O=C(Cn1cnc2c(nnn2Cc2ccc(Cl)cc2)c1=O)NCC1CCCO1 (configuration not stated) | 90
NC(=O)C1CCN(Cc2ccccc2)CC1 | 94
NC(=O)CSCc1ccc(Br)cc1 | 96
CCc1ccc(OC)c(S(=O)(=O)NC2CCCCC2)c1 | 97
Cn1nc(C(F)(F)F)c2cc(-c3nc(-c4ccc(C(F)(F)F)cc4)no3)sc21 | 98
COc1cc(CN2CCCC(O)C2)cc(OC)c1OC (configuration not stated) | 94
c1ccc(Nc2ncnc3c2oc2ccccc23)cc1 | 99
CN(C)NC(=S)Nc1ccc(S(=O)(=O)N2CCCCC2)cc1 | 93
Cc1ccc(N=Cc2c(O)[nH]c(=S)[nH]c2=O)cc1 | 101
COC(=O)C1=C(N)Oc2cc(C)[nH]c(=O)c2C12C(=O)N(CC(C)C)c1ccccc12 (configuration not stated) | 91
CCCCc1nc2c(c(=O)[nH]1)C(C)(C)Cc1ccccc1-2 | 94
N#C/C(=C/c1cn(CC(=O)O)c2ccccc12)c1ccc(F)cc1 | 98

Pulled by structure from the list above, twelve records:
SMILES | RVFV N-RNA inh
Cc1ccc(N=Cc2c(O)[nH]c(=S)[nH]c2=O)cc1 | 101
Oc1ccc(CN2CCN(c3cccc(C(F)(F)F)c3)CC2)cc1 | 97
CCc1ccc(OC)c(S(=O)(=O)NC2CCCCC2)c1 | 97
C/C(=N/O)c1nnc2cc(C)nn2c1C | 99
COc1ccc2c(c1)CN(c1ccc(C)cc1C)CO2 | 95
CN(C)NC(=S)Nc1ccc(S(=O)(=O)N2CCCCC2)cc1 | 93
CCCCc1nc2c(c(=O)[nH]1)C(C)(C)Cc1ccccc1-2 | 94
Cc1ccc(N2CC(NC(=O)NCc3ccccn3)CC2=O)cc1 (configuration not stated) | 93
NC(=O)CSCc1ccc(Br)cc1 | 96
NC(=O)C1CCN(Cc2ccccc2)CC1 | 94
c1ccc(Nc2ncnc3c2oc2ccccc23)cc1 | 99
O=C(Cn1cnc2c(nnn2Cc2ccc(Cl)cc2)c1=O)NCC1CCCO1 (configuration not stated) | 90

In the list so far, 4 contain bromine.
SMILES | RVFV N-RNA inh
Nn1c(SCc2cccc(Br)c2)nnc1-c1ccccc1 | 96
COc1cc(OC)c(CN2CCN(c3ccccc3C)CC2)cc1Br | 93
N#Cc1c(-c2ccccc2)cc(-c2cc(Br)ccc2O)[nH]c1=O | 105
NC(=O)CSCc1ccc(Br)cc1 | 96

As entered above.
Reading for CC12CCC(C(=O)NC3CCCCC3)(CC1=O)C2(C)C (configuration not stated) under RVFV N-RNA inh: 96
Reading for COc1cc2sc(=NC(=O)c3cccc(OC)c3OC)n(C)c2cc1OC under RVFV N-RNA inh: 108
Reading for CN(Cc1ccccc1)C(=O)c1ccccc1NC(=O)C1CC1 under RVFV N-RNA inh: 101
Reading for CSc1ccc(C(=O)Nc2nnc(C3=COCCO3)o2)cc1 under RVFV N-RNA inh: 94

(next part)
SMILES | RVFV N-RNA inh
Cn1cc(Br)c(NC(=O)/C=C\C(=O)O)n1 | 101
CC(CCN1CCCN(C)CC1)c1ccccc1 (configuration not stated) | 95
NC(=S)N/N=C1\CCOc2ccc(Cl)cc21 | 95
O=C(/C=C/c1ccccc1)N1CCN(Cc2cccc(F)c2)CC1 | 83
O=C(COc1ccc(Cl)cc1)NCC(c1ccco1)N1CCc2ccccc2C1 (configuration not stated) | 98
Cc1cc(C(=O)N/N=C/c2[nH]ncc2Cl)no1 | 100
N#Cc1nc(-c2ccccc2F)oc1N1CCN(c2ccccc2)CC1 | 96
COc1ccc(C2=Nc3ccccc3SC(C(=O)O)C2)cc1 (configuration not stated) | 92
Cc1cccc(OCCNCCO)c1C | 95
CC1CC(=O)N(CC(=O)NCc2ccc(F)cc2)c2ccccc2S1(=O)=O (configuration not stated) | 93
N#CCCn1cc(C(=O)n2nnc3ccccc32)c(-c2ccccc2)n1 | 101
CC1CCN(S(=O)(=O)c2ccc(C(=O)Nc3c(C(N)=O)oc4ccccc34)cc2)CC1 | 94
C=C1C(C(=O)Nc2ccc(N(C)C)cc2)C1C(=O)Nc1ccc(N(C)C)cc1 (configuration not stated) | 98
CNC(=O)/C(C#N)=C\c1ccc(Sc2ccccc2)o1 | 88
COc1ccc(S(=O)(=O)N(CC(N)=O)Cc2ccccc2)cc1OC | 100
COC(=O)c1c(NC(=S)NCCn2cc(Br)cn2)sc2c1CCC(C)C2 (configuration not stated) | 94
Nc1c(S(=O)(=O)c2cccs2)c2nc3ccccc3nc2n1Cc1cccs1 | 94
Nn1c(SCC(=O)Nc2ccccc2)nnc1C1CCCCC1 | 101
O=C(CNC(=O)c1ccccc1)Nc1ccccc1 | 95
NC(=O)C(c1ccccc1)c1ccccc1 | 95
O=C(Nc1ccccc1C(=O)Nc1ccc2c(c1)OCCO2)c1ccco1 | 95
O=C1c2ccccc2C(=O)N1N1C(=O)C2C3C=CC(C3)C2C1=O (configuration not stated) | 99
COc1ccc(CC(=O)n2[nH]c(=O)cc(C)c2=O)cc1OC | 94
O=C(CC1NC(=O)NC1=O)Nc1ccccc1 (configuration not stated) | 103
CCOC(=O)CSc1nc(-c2ccccc2)ns1 | 98
CN1CCN(NC(=O)COc2ccc3c(c2)CCC3)CC1 | 97
Cc1cc(S(=O)(=O)N2CCCCC2)c(C)c(C)c1C | 95
COc1ccc(OC/C(N)=N/OC(=O)c2cc(C)on2)cc1 | 95
CCN1CCN(C(=O)c2ccccc2C(=O)Nc2ccc(S(=O)(=O)N3C(C)CCCC3C)cc2)CC1 (configuration not stated) | 91
CCC1CCC(N2CCN(c3ccccc3F)CC2)CC1 (configuration not stated) | 99
CCn1nnc2c(NCCc3ccc(S(N)(=O)=O)cc3)ncnc21 | 94
CS(=O)(=NC(=O)Nc1ccccc1)c1ccsc1 (configuration not stated) | 92
Cc1cccc(N2C(=O)c3ccc(Oc4ccc5c(c4)C(=O)N(c4cccc(C)n4)C5=O)cc3C2=O)n1 | 88
CCn1nnnc1NCc1cccc(Cl)c1 | 95
CC12CCC(O)CC1=CCC1C2CCC2(C)/C(=N/NC(=O)CCC(=O)O)CCC12 (configuration not stated) | 98
CC1CN(C(=O)C(C)NS(=O)(=O)c2cccc(Cl)c2)CC(C)O1 (configuration not stated) | 93
O/N=C1/c2ccccc2/C(=N/O)C1c1ccc(Cl)cc1 | 93
Cc1ccc(S(=O)(=O)Nc2nc3ccccc3nc2NCc2ccco2)cc1C | 89
N#CCCN(Cc1cccs1)S(=O)(=O)c1ccc(-c2ccccn2)s1 | 84
C[N+](C)(C)CCCCCCCCCC[N+](C)(C)C | 106&98

The final two entries of the part above are carried over, then new ones follow:
SMILES | RVFV N-RNA inh
N#CCCN(Cc1cccs1)S(=O)(=O)c1ccc(-c2ccccn2)s1 | 84
C[N+](C)(C)CCCCCCCCCC[N+](C)(C)C | 106&98
CO[C@@H]1[C@H](N(C)C(=O)c2ccccc2)C[C@H]2O[C@]1(C)n1c3ccccc3c3c4c(c5c6ccccc6n2c5c31)C(=O)NC4 | 95
CS(=O)(=O)NCC(c1cccs1)N1CCc2ccccc21 (configuration not stated) | 96
Cc1cccc(C(=O)O)c1O | 104
O=C(/C=C/c1ccco1)NC(=S)N1CCNC(=O)C1CC(=O)OCC1CCCO1 (configuration not stated) | 89
O=C1c2ccccc2-c2nnc(-c3ccc(Cl)cc3)cc21 | 94
CCNC(=S)N1CC=C(c2ccccc2)CC1 | 94
CCc1cc2c(=O)c(-c3ccccn3)coc2cc1O | 94
CC(C)C(=O)O/N=C(\N)c1ccccc1 | 96
CC(C)c1ccc(NC(=S)NCCO)cc1 | 99
CCCCCCOC(=O)[C@]1(O)C[C@@H]2O[C@@]1(C)n1c3ccccc3c3c4c(c5c6ccccc6n2c5c31)C(=O)NC4 | 101
CCSc1nnc(-c2ccccc2)n1-c1ccccc1 | 98
CC1C(=O)c2ccccc2OC1O (configuration not stated) | 95
CC(C(=O)Nc1ccccc1C(=O)NCc1ccco1)N(c1ccccc1)S(C)(=O)=O (configuration not stated) | 84
CC(C)(O)C#CCN1CCCCC1 | 82
Cc1ccc2c(c1)CCCN2CC(=O)c1ccc2c(c1)OCCO2 | 97
CN1CCN(C(=O)CN(c2cccc(Br)c2)S(=O)(=O)c2ccccc2)CC1 | 105
CCN1CCN(Cc2cccc(Br)c2)CC1 | 95
CC1(C)C2CCC1(CS(=O)(=O)O)C(=O)/C2=C\c1ccc(/C=C2\C(=O)C3(CS(=O)(=O)O)CCC2C3(C)C)cc1 | 94
COCC(=O)N1CCN(c2ccccn2)CC1 | 87
O=C(COc1ccccc1F)c1ccc(O)cc1O | 101
CN(C)c1nc(N)nc(CSc2ccccn2)n1 | 88
Cc1ccc(N=C2NC(=O)/C(=C\c3cn(C)c4ccccc34)S2)c(C)c1 | 100
CC(C)=CC(=O)Nc1nc2ccc(S(C)(=O)=O)cc2s1 | 96
O=C(O)CCC(=O)N1CCCC1 | 96
Cc1ccc(OCCOCCOc2ccccc2/C=N\n2cnnc2)cc1 | 111
CC(C)OC(=O)/C(C#N)=C/c1cn(C)c2ccccc12 | 102
O=C(O)c1ccc2c(c1)C(=O)N(NC(=O)c1ccc(O)cc1)C2=O | 99
COc1ccccc1NC(=O)Cc1ccccc1 | 97
COC(=O)c1sccc1S(=O)(=O)N1c2ccccc2NC(=O)CC1C (configuration not stated) | 99
CC(C)(C)c1ccc(OCCCn2ccnc2)cc1 | 111
C=CCn1c(N)cc(=O)nc1SCC(=O)Nc1ccccn1 | 97
O=C(O)c1cccc(NC(=O)C2CCCO2)c1 (configuration not stated) | 90
